# Screens from PubChem BioAssay.
# LANA-nucl inh: LANA-nucleosome interaction inhibition. hit rate 0.3% among 51,000. AID 720717. z-score (no concentration beside the values). FITC-LANA1-23 / chicken nucleosome fluorescence polarization; active compounds read low;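 active = both repeat wells score below -2 in polarization z-score versus plate sample wells, excluding overly bright wells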;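 also: 100 nL library stock added to about 30 µL; numbers are from one replicate; some results filed as inactive read as strong as hits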
#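 Assay system: purified chicken nucleosomes with FITC-labelled LANA N-terminal peptide (1-23) / Probe or stimulus: 50 nM FITC-LANA1-23 probe / Compound dosing: pin-transferred compound, 100 nL / Times: compound with peptide–nucleosome mix 10–45 min at room temperature / Technique: fluorescence polarization, 480 nm excitation, 535 nm parallel and perpendicular emission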
# Ab BasE inh: blocks the Acinetobacter baumannii siderophore enzyme BasE. purified BasE, fluorescence polarization binding displacement. inhibition, % (test concentration not listed). hit rate 0.1% among 84,000. AID 485350;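 active = both replicates above 25% with normal brightness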;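 also: 0% = negative plate control signal and 100% = positive plate control signal; stock transfer was 100 nL into about 30 µL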
# * hit, by the source's call; x = no result given; & = joins results of further samples. Some of the compounds tested; rates above refer to the full screens.
# Second line of a record: LANA-nucl inh, Ab BasE inh
COc1ccccc1-n1cnnc1SCC#N
 : x, 0.6
CC(c1ccccc1)N1Cc2c(oc3ccccc3c2=O)N(C(=O)OCc2ccccc2)C1 (stereo unspecified)
 : 2.01, -2.7
CCCN1C(=O)/C(=N\OCC(=O)NCCC2=CCCCC2)c2ccccc21
 : x, 2.6
COc1ccccc1NC(=O)c1ccc(-n2cccn2)cc1
 : -0.519, 1.6
CC(C)CCn1c(=O)c2ccccc2n2c(COC(=O)c3cc(F)cc(F)c3)nnc12
 : x, 1.0
CNCc1ccc2c(c1)n(C)c(=O)n2C
 : -0.785, 0.1
C=CCN(CC=C)C(=O)/C=C/c1ccccc1
 : 0.473, 2.9
O=C(CN1CCN(S(=O)(=O)c2ccccc2)CC1)NC(=O)NC1CCCCC1
 : x, 0.1
CC(C)c1cc(=O)oc2cc(O)ccc12
 : x, -1.3
Cc1ccnc2nc(C(=O)Nc3ccc(N4CCOCC4)cc3)nn12
 : x, 0.1
O=C(COCc1cc(-c2ccc3c(c2)OCO3)on1)N1CCN(c2ccc(F)cc2)CC1
 : 0.444, -0.8
CC(C)NCC(O)COc1ccc(CC(N)=O)cc1 (stereo unspecified)
 : -0.284&-0.976&0.402&0.685, -1.2&0.3
Cc1cc(C)c(S(=O)(=O)Nc2ncn[nH]2)cc1C
 : -1.03, -1.5
Cc1ccc2c(c1)C(c1ccccc1)CC(C)N2C(=O)c1ccccc1F (stereo unspecified)
 : x, 0.0
O=C(Nc1ccccc1I)C1CCCO1 (stereo unspecified)
 : 0.18, -2.8
CC1(C)NC(=O)N(CCC(=O)O)C1=O
 : 0.179, -0.8
CC1=NN(c2ccccc2)C(=O)C1C=C1C(=O)N(C)C(=S)N(C)C1=O (stereo unspecified)
 : -0.0785, -0.4
COc1ccc(-c2cc(=NC(CC(C)C)C(=O)O)c3cc(C)ccc3o2)cc1 (stereo unspecified)
 : x, 0.5
O=C(CNc1ccccc1F)N/N=C1\CCCCc2ccccc21
 : x, 1.3
CCOC(=O)C1=NN(c2ccccc2)C(=C2C(=O)c3ccccc3C2=O)S1
 : x, 0.6
Cc1cc(NC(=O)Cn2c(=O)n(CC3CCC(C(=O)NCCc4ccccc4)CC3)c(=O)c3ccccc32)n[nH]1 (stereo unspecified)
 : -0.609, 2.8
O=C(O)c1ccccc1Nc1ccc(SC(F)F)cc1
 : x, 8.2
Cc1cc(C)nc(/N=C2\NC(=O)CC(C(=O)O)N2c2ccc(Oc3ccccc3)cc2)n1 (stereo unspecified)
 : -1.22, 1.8
CC(/C=N/NC(=O)c1ccco1)=C\c1ccco1
 : -0.667, -0.1
CCCC1CCC(c2ccc(C(N)=O)cc2)CC1 (stereo unspecified)
 : x, -1.6
CSC(=Nc1cc(C(F)(F)F)cc(C(F)(F)F)c1)N1CCOCC1
 : 1.76, x
CCc1ccc(NC(=O)COc2ncnc3c2cnn3-c2ccccc2)cc1
 : x, -0.6
O=C(c1ccc(OC(F)F)cc1)N1CCN(c2ccccc2)CC1
 : x, 1.4
NC(=O)CSc1nnc(NC(=O)c2cccs2)s1
 : 1.77, 0.4
CCc1ccc(CCC(=O)Nc2cccc(NC(=O)CCc3ccc(CC)o3)c2)o1
 : -0.695, 3.0
CC(=O)Nc1ccc(C(=O)CSc2nnnn2C(C)C)cc1
 : 0.129, -1.5
CC(C)(CNc1nc2cc3c(cc2nc1NS(=O)(=O)c1ccccc1)OCCO3)N1CCOCC1
 : x, 0.3
CC1(C)CC(=O)CC(=O)S1
 : -1.36, -1.7
COc1cc2[nH]c(=S)n(NC(=O)CC(C)C)c(=O)c2cc1OC
 : 0.014, 1.7
O=C(O)CC1S/C(=N/N=C/c2ccccc2)NC1=O (stereo unspecified)
 : 0.673, -0.2
O=C(CN1C(=O)C2CC=CCC2C1=O)NC1CCCc2ccccc21 (stereo unspecified)
 : x, 1.7
Cc1ccc(-c2cc(C(F)F)nc(NCc3ccco3)n2)cc1
 : -0.546, 1.6
CCOC(=O)N1CCN(C(=O)CNC(=O)c2ccc(Br)cc2)CC1
 : 0.524, 1.9
CCN(CC)C(=O)CCc1nc(CN2CCN(C(=O)c3cc(-c4cccs4)on3)CC2)no1
 : x, 0.8
CCOC(=O)c1cc(-c2ccc(F)cc2)n(CC(=O)NN2CCOCC2)c1C
 : -1.8, 1.4
Cc1cc(Br)cc(C)c1OCCCN(C)C
 : x, -2.2
S=C(c1ccccc1)N1CCSCC1
 : x, 0.2
COC(=O)c1ccc(COC(=O)c2cccn2C)o1
 : x, 0.9
CC(=O)Nc1ccc(S(=O)(=O)Nc2nc(CN3CCOCC3)nc3sc4c(c23)CCCC4)cc1
 : x, -3.8
CC1CN(C(=O)C(C)NC(c2ccccc2)c2ccccc2)CC(C)O1 (stereo unspecified)
 : x, 0.7

# Reprinted at random: 6 entries already listed.
# Second line of a record: LANA-nucl inh, Ab BasE inh
Cc1cc(Br)cc(C)c1OCCCN(C)C
 : x, -2.2
CC1CN(C(=O)C(C)NC(c2ccccc2)c2ccccc2)CC(C)O1 (stereo unspecified)
 : x, 0.7
CC(=O)Nc1ccc(S(=O)(=O)Nc2nc(CN3CCOCC3)nc3sc4c(c23)CCCC4)cc1
 : x, -3.8
CC1(C)CC(=O)CC(=O)S1
 : -1.36, -1.7
O=C(CN1C(=O)C2CC=CCC2C1=O)NC1CCCc2ccccc21 (stereo unspecified)
 : x, 1.7
S=C(c1ccccc1)N1CCSCC1
 : x, 0.2

# Continued:
# Second line of a record: LANA-nucl inh, Ab BasE inh
Cn1c(=O)oc2cc(S(=O)(=O)NCCC(=O)NC3CCCc4ccccc43)ccc21 (stereo unspecified)
 : -0.349, -1.0
CCC(C)N1C(=O)S/C(=C/c2ccc(O)c(Cl)c2)C1=O (stereo unspecified)
 : -0.915, -0.8
Cc1cc(C)c(-n2c(SCCS(=O)(=O)c3ccc(F)cc3)n[nH]c2=O)c(C)c1
 : x, -0.8
CN(Cc1cccs1)C(=O)c1ccc2c(c1)NC(=O)CS2
 : x, -0.7
COc1ccc(OC)c(N/C=C(\C#N)c2nc(-c3cc4ccccc4oc3=O)cs2)c1
 : x, 1.9
O=C(COC(=O)c1ccco1)c1ccc(-n2nncc2C23CC4CC(CC(C4)C2)C3)cc1
 : x, -0.6
CCc1nc2cccnc2n1-c1ccc(CC(=O)NCCOC)cc1
 : -0.016, 1.9
Cc1cccc(N2COc3cc4c(cc3C2)OCO4)c1
 : -0.0515, 4.1
COc1ccc(NC(=O)CC(C)S(=O)(=O)c2ccc3c(c2)NC(=O)CO3)cc1 (stereo unspecified)
 : -0.164, -0.4
O=C1CCCc2cc(S(=O)(=O)NCC3CCC(C(=O)Nc4ccccc4)CC3)ccc2N1 (stereo unspecified)
 : x, 1.5
CCc1ccc(C(=O)Nc2cc(NC(=O)c3ccco3)ccc2C)cc1
 : -0.78, 0.2
c1cncc(-c2nnc3n2CCCCC3)c1
 : 0.17, 2.7
Clc1ccc(-c2nc3cc(CN4CCCCC4)ccc3o2)cc1
 : 0.015, x
CSCCSc1nnc(Nc2cccc(C)c2C)s1
 : x, 3.6
O=C(c1ccco1)N1CCN(C2c3cccc4cccc(c34)C2NS(=O)(=O)c2ccccc2)CC1 (stereo unspecified)
 : -0.31, 0.0
Nc1oc2cc(O)ccc2c(=O)c1-c1nc2ccccc2s1
 : -0.212, -1.4
CCc1ccc2oc(C(=O)N(Cc3ccc(N(C)C)cc3)Cc3ccco3)cc(=O)c2c1
 : -1.09, 0.2
O=C(O)C1CCCN(S(=O)(=O)c2ccc(Cl)cc2)C1 (stereo unspecified)
 : 0.372, 0.6
CCN1C(=O)C(OC(=O)c2cscn2)CC1c1ccc(OC)cc1 (stereo unspecified)
 : -0.454, -0.2
Cc1cc(C(=O)CSc2nnc(Cc3ccccc3)o2)c(C)n1Cc1ccc2c(c1)OCO2
 : x, 0.1
CC(Oc1ccc(C(=O)c2ccc(F)cc2)cc1)C(=O)NC(N)=O (stereo unspecified)
 : x, 1.3
CCCCOc1cc(CC2CNC(=O)N2)ccc1OC (stereo unspecified)
 : -0.316, 0.8
CN(C)CCc1c[nH]c2ccc(CS(=O)(=O)N3CCCC3)cc12
 : -0.172, -1.0
CCOC(=O)c1c(NC(=O)Cn2c(=O)cc(C)[nH]c2=O)sc(C(=O)NC)c1C
 : x, 2.9
CN1C2CCC1CC(NC(=O)CSCc1ccc(Cl)cc1Cl)C2 (stereo unspecified)
 : 2.73, x
CS(=O)(=O)Nc1ccc(C(=O)N2CCN(c3ccccc3)CC2)cc1
 : -1.14, 0.0
CN1CCN(C(=O)C2c3ccccc3Oc3ccccc32)CC1
 : 0.019, -1.8
COc1ccc(C(=O)SC2=NC(C)CC(=O)N2)cc1OC (stereo unspecified)
 : 0.227, 0.4
CN(C)c1ccnc(C(=O)O)c1
 : -0.726, 1.4
CCN(CC)S(=O)(=O)c1cccc(C(=O)N/N=C/c2c(C)nn(-c3ccccc3)c2N2CCCC2)c1
 : x, -0.2

# One compound at a time, from the list above:
# Record of CCOC(=O)c1c(NC(=O)Cn2c(=O)cc(C)[nH]c2=O)sc(C(=O)NC)c1C → LANA-nucl inh: x; Ab BasE inh: 2.9
# Record of CS(=O)(=O)Nc1ccc(C(=O)N2CCN(c3ccccc3)CC2)cc1 → LANA-nucl inh: -1.14; Ab BasE inh: 0.0

# Remaining list, next part
# Second line of a record: LANA-nucl inh, Ab BasE inh
COc1ccc(CCN2C(=O)C(C(C)C)NC2=S)cc1OC (stereo unspecified)
 : x, 2.8
CCN(CC)S(=O)(=O)c1cccc(C(=O)N[C@H](C(=O)NCc2ccc3c(c2)OCO3)C(C)C)c1
 : x, -4.3
CCOC(=O)Cc1csc(NC(=O)CSc2nc3c(C)c(C)ccc3cc2C#N)n1
 : -0.13, -2.5
COc1cccc(CNn2c(-c3cccc(C)c3)nc3ccccc3c2=O)c1O
 : 0.118, 1.8
O=C(COC(=O)Cn1cnc2ccccc2c1=O)Nc1ccc(N2CCOCC2)cc1
 : x, -0.5
COc1ccc2[nH]c(=O)c(CN(C(=O)Nc3ccccc3)C3CCCC3)cc2c1
 : -0.134, 2.4
O=S1(=O)N=C(NNS(=O)(=O)c2ccccc2)c2ccccc21
 : -0.257, 3.8
NNC(=O)c1ncoc1-c1ccc(Cl)cc1
 : x, 3.2
O=C(NNc1nc(N2CCOCC2)nc(N2CCOCC2)n1)c1ccc(F)cc1
 : -1.11, 3.0
COC(=O)c1sccc1NC(=O)CC1C(=O)NCCN1C(=O)c1ccccc1 (stereo unspecified)
 : -0.356, -0.2
Cc1nc2c(ccc3ccsc32)s1
 : 0.22, -0.3
Cc1ccc(S(=O)(=O)N2CCN(C(=O)Cn3c(=O)oc4ccccc43)CC2)cc1
 : x, -0.2
Cc1ccc(Cn2cnc3c(nnn3Cc3ccc(C)cc3)c2=O)cc1
 : -0.426, 0.7
O=C(Nc1ccc(S(=O)(=O)N2CCOCC2)cc1)c1cnccn1
 : -0.2, 0.9
CCOC(=O)c1cc(C#N)c(=O)[nH]c1-c1ccccc1
 : -1.37, x
O=C(NC1CCCC1)c1cc2nc(-c3ccccc3)cc(-c3ccccc3)n2n1
 : x, 2.0
C=CCn1ccn(-c2ccc(OCC)cc2)c(=O)c1=O
 : -0.635, 1.1
COc1ccc(NC(=O)CNS(=O)(=O)/C=C/c2ccc(C)cc2)cn1
 : x, 0.7
OC(c1ccccc1)(c1ccccc1)C(F)F
 : x, 3.1
O=C(COc1cccc(Oc2ccccc2)c1)Nc1ncccn1
 : x, 6.6
COC(=O)c1ccccc1S(=O)(=O)N1CCC(C(=O)O)CC1
 : x, 1.6
Cc1nc(NC(=O)CSC2=NCCS2)sc1C(=O)N(C)C
 : 0.428, 0.4
O=C(O)CCC(=O)N1CCC(Oc2nnnc3ccccc23)CC1
 : -0.933, -0.9
N#CCCn1c(SCC(=O)NCC23CC4CC(CC(C4)C2)C3)nc2ccccc21
 : x, -2.1
COc1ccc(CCNc2c[nH]c(=O)[nH]c2=O)cc1OC
 : -0.529, 1.1
O=C(/C=C/c1ccccc1)NCc1n[nH]c(=O)c2ccccc12
 : -0.044, 0.2
Cc1nc2nc(N)nn2c(C)c1CC(=O)NC(C)c1ccccc1 (stereo unspecified)
 : x, 5.9
O=C(O)CCC(=O)Nc1ccccc1O
 : 0.398, 1.8
O=C1NC(c2cccc(F)c2)=N/C1=C/c1cc2c(cc1Cl)OCO2
 : 0.996, -1.5
CCc1[nH]nc2c1C(C1C=CCCC1)C(C#N)=C(N)O2 (stereo unspecified)
 : -0.625, -0.6
Cc1ccc(S(=O)(=O)N2CCCC(c3nnc4n3-c3ccccc3SC4)C2)cc1 (stereo unspecified)
 : x, 0.6
N#CNC1=NCN(C2CCCCC2)CN1
 : -0.652, -0.1
Cc1cccc(COc2nn[nH]n2)c1
 : x, 1.4
S=C(NC1CCCCC1)C12CCC3CC(CC(C3)C1)C2
 : x, -13.5
O=C(CN(CCO)CC(=O)Nc1ccc(C(F)(F)F)cc1)Nc1ccc(C(F)(F)F)cc1
 : x, -0.7
CCOc1ccccc1C(=O)NC1CC2CCCC(C1)N2Cc1nnnn1Cc1ccco1 (stereo unspecified)
 : -1.21, 0.2
Cc1ccsc1C(=O)OC1CCOC1=O (stereo unspecified)
 : x, 0.7
Cc1nc(C)c(C(=O)N/N=C/c2ccc(O)cc2O)cc1C(=O)N/N=C/c1ccc(O)cc1O
 : -0.283, 0.4
Fc1cc2c(c(CSc3nc4ccccc4s3)c1)OCOC2
 : x, 1.6
COc1cccc(CNC(=O)C(C)N2Cc3ccccc3C2=O)c1 (stereo unspecified)
 : -0.0595, -2.6
CSc1ncc2c(=O)n(Cc3ccccc3)ccc2n1
 : -0.095, -0.3
